AF4-AF9 inh = inhibitors of human MLL-AF4/AF9 interaction | hit rate 0.47% among 350,000 | AlphaScreen, biotin-AF4 peptide binding to FLAG-AF9 | P42568 | inhibition, % at 10 µM | AID 651704;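 active means every replicate reaching a set inhibition limit, whatever the replicate mean, cut at about 25% in these data; inconclusive means mean inhibition reaches that limit but some replicates miss it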;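 further: 0% = plate neutral control median and 100% = total signal loss; the record names both 10 and 1 µM as test concentration; the first replicate is given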
Target sequence (P42568 whole entry, looked up): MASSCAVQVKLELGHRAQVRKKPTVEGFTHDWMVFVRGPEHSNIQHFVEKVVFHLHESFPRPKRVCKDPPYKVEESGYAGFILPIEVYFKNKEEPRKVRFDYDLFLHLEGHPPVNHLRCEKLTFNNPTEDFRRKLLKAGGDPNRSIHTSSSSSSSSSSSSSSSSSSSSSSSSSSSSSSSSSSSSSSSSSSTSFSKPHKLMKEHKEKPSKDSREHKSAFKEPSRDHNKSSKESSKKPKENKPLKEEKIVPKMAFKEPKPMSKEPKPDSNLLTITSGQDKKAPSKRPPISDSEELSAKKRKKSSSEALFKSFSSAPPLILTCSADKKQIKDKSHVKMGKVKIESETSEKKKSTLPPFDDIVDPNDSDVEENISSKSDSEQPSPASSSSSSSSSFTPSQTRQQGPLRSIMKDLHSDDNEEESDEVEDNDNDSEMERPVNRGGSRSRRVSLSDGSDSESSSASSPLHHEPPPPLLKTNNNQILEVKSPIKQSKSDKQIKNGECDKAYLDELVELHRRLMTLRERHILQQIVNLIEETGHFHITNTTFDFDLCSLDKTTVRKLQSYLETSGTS
Ecoli rRNA inh = inhibitors of bacterial rRNA selective over humanized ribosomes | E. coli WT GFP vs humanized-ribosome RFP mutants, fluorescence, 24 h; stronger effect = lower value; DMSO median 0, no signal -100 | GFP signal change (wild-type ribosome), % (concentration not given with the values) | hit rate 1.6% among 350,000;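 active means significant combined selectivity score with lowered wild-type GFP, culture density cut under 30%, mutant RFP and density less affected; inactive means any of these conditions unmet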; further: one replicate is shown; some compounds called inactive have numbers as strong as hits
Bfl-1 A1 inh = inhibitors of the anti-apoptotic protein A1, read as caspase activation; MEF A1-2A-BIM cells, Caspase-Glo 3/7 luminescence, 3 h; percent of clofoctol response, vehicle zero; caspase activation, % (concentration not given with the values); hit rate 0.066% among 330,000; AID 2462;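 active means over half of replicate activation scores above 10%, or exactly half above 10 with the replicate mean above 10; inconclusive means replicate mean below 10 yet half the replicates above 10; inactive means over half of replicates below 10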;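 further: wells of about 30 µL received 50 nL stock; many hits fall short of the cut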
RanGTP-Imp inh = inhibitors of RanGTP-importin-beta interaction, primary screen, biochemical, FRET, CFP-Ran, YFP-importin-beta, homogeneous. cell-free CFP-Ran/YFP-importin-beta FRET ratio. inhibition, % (no concentration beside the values). hit rate 1.1% among 300,000. AID 2216;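 active means most replicates above 15%; inconclusive means exactly half above 15%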;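 further: 0% = DMSO wells and 100% = Ran loaded with GDP instead of GTP; wells of about 40 µL received 100 nL stock; the first replicate is given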
Vif TR-FRET = inhibitors of Vif binding to APOBEC3G peptide, primary screen, biochemical, TR-FRET, GST-Vif 1-94, biotin-A3G peptide, dose response retest (AID 1117319); TR-FRET GST-Vif / biotin-A3G peptide binding; higher % means a stronger effect; test concentration not given here; strong numbers were not always called active; inhibition, %, or IC50 in µM where a hit was titrated; hit rate 0.57% among 260,000;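 active means above the screen mean plus three standard deviations and confirmed in dose response; inconclusive means results disagree or hit not tested in dose response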;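 further: Vif residues 1-94 fused to GST binding biotinylated APOBEC3G peptide 110-148; 0% = full assay without inhibitor and 100% = GST in place of GST-Vif; retest series ran down from 100 µM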
T cruzi inh = T. cruzi replication inhibition; T. cruzi beta-gal in NIH3T3, luminescence, 90 h; inhibition, % (no concentration beside the values); hit rate 1.4% among 300,000; AID 1885;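 active means mean inhibition across valid replicates above about 55%, limit read from the data; inconclusive means mean below that limit but half or more replicates reach it; inactive means mean below it, under half of replicates reach it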;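 further: signal also drops with host cell toxicity which is not excluded here; 0% = plate median of DMSO wells and 100% = zero luminescence signal; higher percent means less beta-gal luminescence so fewer parasites; stock transfer was 50 nL into about 50 µL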
Calb FLC = C. albicans growth modulation with fluconazole; growth inhibition, % (no concentration beside the values); hit rate 0.57% among 300,000; C. albicans CaCi-2 (fluconazole-resistant clinical isolate) + fluconazole, Alamar Blue growth, 48 h; AID 1979;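 active means most replicates above 75%; inconclusive means exactly half above 75%; inactive means most below 75%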;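 further: all wells also contain fluconazole at 8 µg/ml as a sub-toxic cotreatment; 0% = median of DMSO wells and 100% = median of geldanamycin control wells; wells of about 8 µL received 7.5 nL stock; the first replicate is given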
Beta cell apopt = blocks beta cell apoptosis; INS-1E cytokine-induced death, ATP luminescence, 48 h; percent of positive-control rescue, neutral wells zero; AID 435005; hit rate 0.8% among 300,000; protection from apoptosis, % (no concentration beside the values);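 active means all replicates at 75% or more, or half of them and the mean; inconclusive means half reach 75% but not the mean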;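 further: 0% = cytokine-treated negative control wells and 100% = positive control rescue; higher means more ATP so stronger rescue from cytokine killing; wells of about 40 µL received 100 nL stock; the first replicate is given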
Ecoli rRNA inh OD600 = second read-out of Ecoli rRNA inh, no call of its own (marks repeat the call); OD600 change, %; measured here: OD600 growth;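 optical density of the mix in the first replicate; 0 = DMSO median and -100 = no signal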
Ecoli rRNA inh RFP = recorded beside Ecoli rRNA inh, whose call it bears; RFP signal change, %; measured here: RFP humanized mutant strains;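 first replicate; 0 = DMSO median and -100 = no signal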
The depositor's hits bear a star; ? = inconclusive; . = not tested or not shown. The list is partial, so the mix of outcomes need not match the whole.

SMILES | AF4-AF9 inh | Ecoli rRNA inh | Ecoli rRNA inh OD600 | Ecoli rRNA inh RFP | Bfl-1 A1 inh | RanGTP-Imp inh | Vif TR-FRET | T cruzi inh | Calb FLC | Beta cell apopt
COc1cccc(/C=N/NC(=O)CNC(=O)c2ccc(S(=O)(=O)N3CCOCC3)cc2)c1OC | 3.5 | 8 | 16 | 3.8 | -0.7 | -0.2 | -2% | 3 | 7 | -1
O=C(C[n+]1ccc(/C=N/O)cc1)NCc1ccccc1 | -0.5 | 22 | 15 | 2.8 | 0.1 | 2.2 | 1% | -3 | -27 | -4
NS(=O)(=O)c1cccc(-n2cnnn2)c1 | 4.3 | 16 | 11 | 0.0 | 1.3 | 0.2 | . | -8 | 3 | -7
Cc1cc(C)n(CCc2nc(-c3ccc(F)cc3)cs2)n1 | 1.2 | -20 | -23 | 0.5 | 0.1 | -3.5 | -5% | -1 | 6 | 3
COCCNC(=O)c1c[nH]c2ccc(S(=O)(=O)N(C)c3ccc(C)c(C)c3)cc2c1=O | -1.8 | 2 | 9 | -1.9 | 0.5 | 0.6 | . | 3 | -1 | -5
Cc1cc(C)c(S(=O)(=O)Nc2ccc[nH]c2=O)c(C)c1 | . | . | . | . | 0.3 | -0.5 | 9% | -3 | -1 | .
CCCc1cc(=O)[nH]c(SCC(=O)N2CCc3ccccc32)n1 | -0.9 | -2 | 0 | -3.1 | 1.1 | . | . | . | . | 3
NC(=O)c1ccc(NC(=O)COC(=O)C(Cc2ccccc2)NC(=O)c2ccccc2)cc1 (centres undefined) | -2.8 | 4 | -2 | -1.2 | 1.0 | 3.2 | . | -15 | 2 | -4
NS(=O)(=O)c1ccc(CNC(=O)CNC(=O)c2ccc(F)cc2)cc1 | -2.9 | 9 | 8 | 1.1 | 0.1 | -0.3 | 6% | 3 | -5 | -1
O=C(CC1(O)C(=O)Nc2ccccc21)c1cccnc1 (centres undefined) | . | . | . | . | -0.4 | -0.7 | 0% | -13 | -37 | .
CNC(=S)NNS(=O)(=O)c1ccc(OC)cc1OC | -1.6 | 8 | 13 | 0.8 | -0.1 | -2.7 | -5% | -11 | -5 | .
COc1ccc(N(CC(=O)NCc2ccccc2C)S(=O)(=O)c2ccc(C)cc2)cc1OC | 0.7 | 7 | 30 | -3.7 | 0.2 | 0.9 | >100µM* | 0 | -5 | -1
O=C1NC2(CCCCC2)C(=O)N1c1ccccc1 | . | . | . | . | 0.0 | -4.3 | 0% | -3 | -1 | -2
S=C(Nc1ccc2nsnc2c1)N1CCCC1 | 4.6 | -14 | -21 | -6.5 | 1.3 | -19 | -25% | 16 | 2 | -7
COC(=O)c1ccc(COc2ccc3c4c(c(=O)oc3c2)CCC4)o1 | . | . | . | . | -1.5 | -2.6 | -4% | 3 | -4 | -5
O=C(N/N=C/c1cccc(NC(=O)c2ccc(Cl)cc2)c1)c1ccc(O)cc1 | -3.5 | -4 | -1 | 6.3 | -2.4 | -3.3 | 3% | -14 | 2 | 12
COc1ccc(/C=C2\CCn3c2nc2cc(C(=O)O)ccc2c3=O)cc1OC | 6.5 | 8 | 4 | 1.5 | 0.2 | 3.0 | 15% | 3 | 10 | -9
CN(C)S(=O)(=O)c1cccc(-c2cn3ccccc3n2)c1 | . | . | . | . | -0.1 | -2.9 | -6% | 4 | 14 | -2
Cc1ccc(CCNC(=O)c2ccc3nc4ccccc4c(=O)n3c2)cc1 | -4.2 | 7 | 7 | 1.6 | -1.0 | 8.6 | 1% | -11 | -7 | .
O=C(Nc1ccccc1Cl)O/N=C(/c1ccccc1)c1ccccn1 | . | . | . | . | 1.1 | 4.7 | -4% | 0 | -2 | -2

3 entries drawn at random from the list so far:
SMILES | AF4-AF9 inh | Ecoli rRNA inh | Ecoli rRNA inh OD600 | Ecoli rRNA inh RFP | Bfl-1 A1 inh | RanGTP-Imp inh | Vif TR-FRET | T cruzi inh | Calb FLC | Beta cell apopt
CN(C)S(=O)(=O)c1cccc(-c2cn3ccccc3n2)c1 | . | . | . | . | -0.1 | -2.9 | -6% | 4 | 14 | -2
O=C(Nc1ccccc1Cl)O/N=C(/c1ccccc1)c1ccccn1 | . | . | . | . | 1.1 | 4.7 | -4% | 0 | -2 | -2
COc1cccc(/C=N/NC(=O)CNC(=O)c2ccc(S(=O)(=O)N3CCOCC3)cc2)c1OC | 3.5 | 8 | 16 | 3.8 | -0.7 | -0.2 | -2% | 3 | 7 | -1

Next records
SMILES | AF4-AF9 inh | Ecoli rRNA inh | Ecoli rRNA inh OD600 | Ecoli rRNA inh RFP | Bfl-1 A1 inh | RanGTP-Imp inh | Vif TR-FRET | T cruzi inh | Calb FLC | Beta cell apopt
Cc1cc(/C=C(\C#N)C(=O)Nc2ccccc2)c(C)n1-c1ccc2c(c1)OCO2 | -5.9 | -5 | 0 | 22 | -0.7 | -3.0 | -1% | 2 | 13 | 21
CN1CCN(C2=NC(=O)/C(=C/c3ccccc3OS(=O)(=O)c3ccccc3)S2)CC1 | 2.8 | -20 | -24 | 2.1 | -0.4 | -0.3 | -14% | 9 | -9 | -5
CC(C)c1ccc2[nH]c(O)c(N=NC(=O)c3cccc(S(=O)(=O)N4CCCCC4)c3)c2c1 | . | . | . | . | 0.4 | 1.2 | -6% | 69* | 4 | 23
CCCn1c(SCC(=O)c2[nH]c(C)c(C(C)=O)c2C)n[nH]c1=O | -13 | 0 | -5 | -7.0 | 0.9 | -4.0 | -3% | -9 | 0 | -2
Cc1ccc(Nc2ccccc2)cc1 | . | . | . | . | -0.4 | 1.2 | 6% | -3 | 5 | -5
CCC(Sc1nc2ccccc2c(=O)n1CCN1CCOCC1)C(=O)NCc1cccnc1 (centres undefined) | . | . | . | . | 0.5 | 2.7 | 3% | -18 | 1 | -8
CC/C(=N\NC(=S)NC(C)C)c1ccc(OC(F)F)cc1 | 2.1 | -24 | -36 | -9.1 | -0.4 | 1.4 | . | 11 | 1 | 3
CC1CCN(C(=O)c2[nH]cnc2C(=O)N[C@@H](C)C(=O)OC(C)(C)C)CC1 | -4.1 | 7 | 8 | 1.5 | 1.2 | -0.1 | -3% | -13 | -4 | -15
COc1ccccc1NC(=O)C(Sc1ccccc1)c1ccccc1 (centres undefined) | . | . | . | . | 0.7 | -0.3 | . | 10 | -12 | 5
Cc1cc([N+](=O)[O-])ccc1Nc1nc2ccccc2n2cnnc12 | -1.0 | 7 | 6 | 7.8 | 0.5 | -3.5 | -1% | 17 | 8 | 10
O=S(=O)(c1ccccc1)c1ccc(C(F)(F)F)cn1 | -0.4 | 2 | 5 | -1.3 | -0.1 | -0.9 | . | 0 | 7 | -4
Cc1cc2c(nn1)CCc1nonc1-2 | -1.1 | 2 | -1 | -4.8 | 0.2 | -3.3 | 2% | -21 | 1 | -3
Nc1c(C(=O)OCC2CCCO2)c2nc3ccccc3nc2n1C1CCCC1 (centres undefined) | . | . | . | . | -0.2 | 13 | -8% | 17 | 10 | 10
COc1ccccc1NC(=O)N(CCN1CCCC1)Cc1cc2cc(C)ccc2[nH]c1=O | . | . | . | . | 0.2 | -6.1 | 2% | 13 | -23 | 4
COc1ccc(/C=N/NC(=O)c2ccncc2)cc1CN1CCN(c2ccc(F)cc2)CC1 | 7.9 | 8 | 12 | 0.0 | 0.1 | 5.7 | 2% | -9 | -4 | 0
O=C(CSc1nnc(-c2ccco2)o1)NC(=O)C1COc2ccccc2O1 (centres undefined) | . | . | . | . | 0.4 | 4.9 | 6% | -16 | 2 | 3
Cc1ccc(C)c(NC(=O)C(C)N2C(=O)c3ccccc3C2=O)c1 (centres undefined) | 0.3 | 27 | 11 | 1.5 | 1.4 | 6.7 | . | -3 | -13 | -5
COc1cccc(OCCSc2nc3ccccc3c(=O)[nH]2)c1 | -1.7 | 3 | -8 | -0.4 | -0.2 | 3.1 | -62% | 5 | 44 | 5
CCOC(=O)C1(CCCc2ccccc2)CCN(CC(O)CO)CC1 (centres undefined) | 0.5 | 0 | -2 | 3.3 | 0.0 | 0.3 | ? | 1 | -23 | -6
CSc1cc(N2CCOCC2)nc(-c2ccccc2Cl)n1 | -10 | -8 | 5 | -1.8 | 0.2 | 0.0 | 32% | 11 | 1 | -1
CC(C)(C)NC(=O)CSc1nc(O)cc(=O)[nH]1 | . | . | . | . | 0.5 | -1.3 | 6% | -9 | 3 | -7
CCOC(=O)c1c(NC(=O)C(Sc2ccccc2)c2ccccc2)sc(C(=O)N(C)C)c1C (centres undefined) | . | . | . | . | 1.4 | -0.1 | . | -2 | 4 | -12
O=C(Nc1nnc(-c2ccc(Br)cc2)o1)c1cccc(N2C(=O)CCC2=O)c1 | -1.8 | -37 | -57 | -13 | -0.1 | 1.2 | -7% | -9 | 7 | .
CN(C)C(CNC(=S)Nc1ccc(Cl)cc1)c1cccnc1 (centres undefined) | -7.8 | 2 | 2 | 0.1 | 0.8 | -1.2 | -5% | 12 | -1 | -4
O=C(NCCN1CCOCC1)C1CCC(CNS(=O)(=O)c2ccccc2)CC1 (centres undefined) | . | . | . | . | 0.0 | 5.3 | ? | 5 | -4 | -5
CC(Sc1ccccc1)C(=O)NCC1COc2ccccc2O1 (centres undefined) | -2.8 | -6 | -10 | 1.0 | -0.8 | 4.4 | 0% | -11 | 4 | 9
CC(=O)Nc1cccc(-c2cn3ccc(C)cc3n2)c1 | 1.1 | -11 | 7 | -1.6 | -6.6 | . | 3% | -4 | 2 | 6
O=C(NC1CCCC1)C(NS(=O)(=O)c1ccc(Br)s1)c1ccccc1 (centres undefined) | -1.6 | 8 | -4 | -4.1 | 0.8 | 1.1 | 17% | -15 | -2 | 1
COC(=O)C1=C(C)Nc2c(c(=O)n(C)c(=O)n2C)C1c1cccs1 (centres undefined) | . | . | . | . | -0.3 | 4.3 | -2% | -14 | 4 | -5
CN(C)N=Nc1nc2c(c(=O)n(C)c(=O)n2C)n1CC1CO1 (centres undefined) | -2.2 | 13 | 3 | 1.2 | 1.7 | 0.7 | . | -8 | -10 | 7
CCOC(=O)c1[nH]c2ccc(OC)cc2c1NC(=S)N1CCN(C(=O)OCC)CC1 | -7.7 | -4 | -1 | -5.7 | 0.8 | -4.7 | 30% | -6 | 8 | -7
Cc1ccc(C)c(S(=O)(=O)N2CCCCC2CCNC(=O)C(=O)NCCc2ccco2)c1 (centres undefined) | -3.3 | -10 | -25 | 4.0 | 0.4 | ? | . | 8 | -5 | -2
O=C(CSc1ccc2nnc(-c3cccnc3)n2n1)Nc1ccccc1C(F)(F)F | -0.3 | 1 | 8 | 2.3 | 1.5 | 2.9 | . | -7 | -1 | -6
O=C(NCc1ccncc1)C1CCN(S(=O)(=O)c2ccc(F)cc2)CC1 | -0.7 | 4 | 4 | 1.4 | 0.1 | 2.8 | 5% | -7 | 28 | -2
